CBX7 inh: CBX7 inhibition, primary AlphaScreen; O95931; AlphaScreen His6-CBX7 / biotin-H3K27me3 peptide binding; stronger effect = lower value; normalised signal (fraction of DMSO) (test concentration not listed); 1.1% of 66,000 active; AID 1224903; in the data active means normalised signal below about 0.5;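 further: 100 nL library stock added to about 20 µL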
Target sequence (O95931 whole entry, looked up): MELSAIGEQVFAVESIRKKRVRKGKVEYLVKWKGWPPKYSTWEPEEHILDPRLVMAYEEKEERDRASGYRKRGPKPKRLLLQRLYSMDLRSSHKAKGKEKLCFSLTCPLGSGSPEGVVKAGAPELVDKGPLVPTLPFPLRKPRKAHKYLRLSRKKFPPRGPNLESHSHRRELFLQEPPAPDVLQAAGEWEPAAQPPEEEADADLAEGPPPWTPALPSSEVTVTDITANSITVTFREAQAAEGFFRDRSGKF
CBX7 inh z-score: also measured in CBX7 inh; calls as there; z-score; measured here: z-score of CBX7 signal; some inactives read as strong as hits; reference of the scale not given here;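 same signal on another scale; lower means less binding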
Starred values were filed as active, the others as inactive; & = joins results of further samples. An excerpt. The share of hits here may be higher or lower than overall.

SMILES	CBX7 inh	CBX7 inh z-score
c1ccc2c(N3CCCCC3)nc(-c3ccncc3)nc2c1	0.85	-0.53
CC1(C)CC(=O)C2=C(C1)Nc1ccccc1NC2/C=C/c1ccccc1 (configuration not stated)	0.95	-1.9
Brc1ccc(-c2nc(-c3ccccc3)c(-c3ccc(Sc4ccccc4)cc3)[nH]2)cc1	0.86	-5.6
COc1ccc(-c2nc(CSCC(=O)NCc3ccccc3)c(C)o2)cc1	0.97	-0.17
CC1CCc2c(C(=O)NCc3ccccc3Cl)csc2C1 (configuration not stated)	1.1	4.1
Cc1ccc2c(c1)NC(=O)C(CC(=O)N(C)Cc1ccccc1)O2 (configuration not stated)	0.99	-0.28
CCN(CC)S(=O)(=O)c1ccc2c(c1)N(CC(=O)N1CCCCC1)C(=O)CS2	1	0.9
COc1ccc(-n2nc(C(=O)Nc3ccc(F)cc3)c3ccccc3c2=O)c(OC)c1	1	0.26
CCCCC1CCC(c2noc(-c3ccc(F)cc3)n2)CC1 (configuration not stated)	1.8	11
CCN1CCN(c2nc(-c3ccc(Cl)cc3)nc3ccccc23)CC1	0.89	-1.4
CC1(C)CC(=O)C2=C(C1)Nc1cc(C(=O)c3ccccc3)ccc1NC2c1cccc(O)c1 (configuration not stated)	0.98	-0.66
CCN(CCCNC(=O)COc1ccc2c(c1)C(=O)CC(C)(C)O2)c1cccc(C)c1	0.89	-0.88
CCOc1ccc2nc(NC(=O)Cn3ncc4c3-c3ccccc3OC4)sc2c1	1.3	1.6
Fc1ccc(-c2nc3cnccn3c2NC2CCCCC2)cc1	1.5	4.7
O=C(CSc1nc2ccccc2[nH]1)Nc1nc2ccccc2s1	1&1	1.2&0.48
COC(CNC(=O)c1ccc2c(c1)nc(C)n2-c1ccc(Br)cc1)OC	1	0.2
CC(C)c1ccc(NC(=O)c2cccc3c2C(=O)N(Cc2cccnc2)C3)cc1	0.96	-0.042
CC(C)c1ccc(N(C)C(=O)c2cn(-c3ccc(F)cc3F)c(=O)c3ccccc23)cc1	0.95	-1.1
CCOC(=O)N1CCN(c2c(N3CCN(C)CC3)c(=O)c2=O)CC1	0.97	-0.84
O=C(NC1CC1)c1ccc(Cl)c(NC2=NC3CS(=O)(=O)CC3S2)c1 (configuration not stated)	1.1	2.2
CCCC1=Nc2cc(C(=O)NCCc3ccc(C)cc3)ccc2Sc2ccc(C)cc21	0.75	-2.7
CCCCNC(=O)CCNC(=O)Cn1ccc2ccccc2c1=O	1	-0.065
Cc1cc(N2CCCCC2)nc2ccc(NC(=O)CCC(=O)NCCCN3CCCC3=O)cc12	1.1	0.076
CN(CCNC(=O)CC1Oc2ccccc2NC1=O)C1CCCCC1 (configuration not stated)	1.2	1.3
COc1ccc(C(=O)N2CCNc3ccccc3C2)cc1OC	0.97	-0.5
CCCc1ccc(OCc2nc(-c3ccc(NC(=O)Cc4ccccc4OC)cc3)no2)cc1	1	0.29
CC1CCN(c2nc3nonc3nc2Nc2cccc(Cl)c2)CC1	0.94	-1.6
Cc1nc(N2CCCCC2C)c2c(C)c(C(=O)Nc3ccccc3C(F)(F)F)sc2n1 (configuration not stated)	1.1	4.2
CCOC(=O)c1c(NC(=O)CSc2nc3ccccc3[nH]2)sc2c1CCN(C)C2	1	0.41
COCCNC(=O)CCCc1cc(-c2ccc(OC)cc2)on1	0.99	-0.52
CCOc1ccc2nc(N3CCCC(C(=O)NCCCN4CCCCC4)C3)sc2c1 (configuration not stated)	1.1	1.3
O=C(NCCc1ccccc1)C1CC(=O)N(C2CCCCC2)C1 (configuration not stated)	1.1	2.5
COC(=O)c1cc2oc(C)cc2n1Cc1ccc(C)cc1	0.86	-1.9
CCc1ncc(C(O)(c2ccccc2)c2ccc(C)cc2)n1C (configuration not stated)	0.99&1	-0.074&0.11
CCCS(=O)(=O)N1CCC(C(=O)NCCc2ccc(OC)c(OC)c2)CC1	1	1.8
COc1cccc(C2C(=O)N(C3CCCCC3)CC(=O)N2C2CCCc3ccccc32)c1 (configuration not stated)	1.2	1
CCN(CC)S(=O)(=O)c1ccc2oc(C(=O)NCc3ccccn3)c(C)c2c1	0.69	-1.5
Cc1ccc(-c2cc(C(=O)NCc3cn(C)nc3C)c3cc(Br)ccc3n2)cc1	1	-0.026
Cc1cccc(-n2c(CCC(=O)O)ccc2-c2ccc(F)cc2)c1	1	0.56
CCOc1ccc(-c2csc(NC(=O)CCCOc3ccc(C(C)(C)C)cc3)n2)cc1	1.1	1.4
COC(=O)c1c[nH]n2c(NC3CCCCC3)c(-c3ccc(OC)cc3)nc12	0.32*	-13*
O=C1C2C(C(=O)N1c1ccccc1F)C1C=CC2C12CC2 (configuration not stated)	1	-0.067
COCCCNC(=O)c1cc(=O)[nH]c2ccc(S(=O)(=O)N3CCC(C)CC3)cc12	0.96	-0.81
CCN(C(=O)Cn1nc(Cc2cccnc2)c2ccccc2c1=O)c1cccc(Cl)c1	0.97	-1
CC(=O)N1c2ccc(S(=O)(=O)NCCc3ccccc3)cc2CC1C (configuration not stated)	1.1	1.6
COc1ccccc1-c1cc2nc(C)c(CCC(=O)NCCN3CCC(Cc4ccccc4)CC3)c(C)n2n1	0.96	-1.4
COc1cc(C2C(=O)N(C3CCCCCC3)CC(=O)N2CCC2=CCCCC2)ccc1OC(C)C (configuration not stated)	0.9	-1.8
CCc1ccc(-c2nc(CN3CCCC(C(=O)NCCc4ccc(C)cc4)C3)c(C)o2)cc1 (configuration not stated)	0.91	-2.4
Cc1cccc(-c2nc(CSCC(=O)NCc3cccs3)c(C)o2)c1	1.1	1.4
COC(=O)c1ccc(C(=O)Nc2ccc3nc(-c4cccnc4)[nH]c3c2)cc1	1.1	0.093
CCCCN(CC)S(=O)(=O)c1ccc2[nH]c(=O)cc(C(=O)NCCC3=CCCCC3)c2c1	0.98	-0.33
Cc1onc(-c2ccccc2Cl)c1C(=O)Nc1ccccc1NC(=O)c1ccccc1	1	0.28
COc1ccc(OC)c2[nH]c(=O)c(CCNC(=O)c3ccc(Br)cc3)cc12	0.8	-3.5
COc1ccc(-c2cc3nc(C)c(CCC(=O)Nc4ccccc4)c(C)n3n2)c(OC)c1	1.1	0.73
CCOCCCNC(=O)c1ccc2c(c1)N(Cc1ccc(F)cc1)CCS2	0.93	-0.43
COc1ccc(CCNc2nc(-c3ccc(Cl)cc3)cc(C(F)(F)F)n2)cc1OC	1.2	9.7
CCCNC(=O)CSCc1cnn(-c2ccccc2)c1-n1cccc1	1.1	2.4
CCOC(=O)N1CCC(NC(=O)CC2Oc3ccc(Cl)cc3NC2=O)CC1 (configuration not stated)	1	0.67
COc1ccccc1-c1cc2nc(C)c(CCC(=O)NCc3ccccc3Cl)c(C)n2n1	1	0.88
CCc1c(-c2ccccc2)nc2ccccc2c1C(=O)NC(C)C	0.81	-0.75

Next structures follow:
SMILES	CBX7 inh	CBX7 inh z-score
Nc1nnc(COc2ccc(Br)cc2Br)s1	1	0.4
Cc1cccc(C(=O)NC(C)c2nc3ccccc3n2C)c1 (configuration not stated)	1.1	1.4
COCCNC(=O)CSc1nc(-c2ccc(F)cc2)[nH]c1-c1ccc(OC)cc1	0.96	-1
CCCNC(=O)Cn1cnc2sc(C(=O)Nc3ccc4c(c3)OCCO4)c(C)c2c1=O	1	0.35
Cc1ccc(C)c(N2CCN(C(=O)Cn3ncc4c3-c3ccccc3OC4)CC2)c1	0.75	-7.3
Cc1cccc(N2C(=O)CC(Cc3ccc(Cl)cc3)C2=O)c1Cl (configuration not stated)	0.9	-1.2
CCN(CC)c1ccc(NC(=O)C2CCCN(S(=O)(=O)c3cccnc3)C2)c(C)c1 (configuration not stated)	0.92	-2.8
Cc1ccc(CCNC(=O)c2cc(C)nn2-c2ccccc2)cc1	0.99	-0.24
Cc1ccc2nc(NC(=O)CSc3nccn3-c3ccc(F)cc3)sc2c1	0.96	-0.052
COc1ccccc1CNC(=O)Nc1cccs1	0.97	-1.1
O=C1CN(C(=O)COc2ccc3ccccc3c2)C(c2ccccc2)c2cc(F)ccc2N1 (configuration not stated)	0.9	-0.44
Cc1nn(C)c(C)c1S(=O)(=O)N(CC(=O)Nc1ccc(F)cc1)c1ccc(C(C)C)cc1	1.2	1.5
CCOc1cc2c(cc1OCC)C1C(C(=O)Nc3cccc(C#N)c3)c3ccccc3C(=O)N1CC2 (configuration not stated)	0.98	-0.13
CCCNC(=O)c1cc2sccc2n1Cc1ccc(C)cc1	0.99	-0.33
COCc1nc2ccccc2n1CCCOc1ccccc1C	1.1	2.3
CCOC(=O)c1cnc2ccc(OCC)cc2c1Nc1ccccc1Cl	1	0.8
COc1ccc(C2C(=O)N(C3CCCCC3)CC(=O)N2CCC2=CCCCC2)cc1 (configuration not stated)	0.78	-0.89
COc1ccc(N2CCN(CCCNC(=O)c3csc4c3CCCC4)CC2)cc1	0.75	-8.2
Cc1ccc(NC(=O)C2CC2(c2cccc(C)c2)c2cccc(C)c2)cc1 (configuration not stated)	1	0.4
CC(C)COc1cccc(-c2cc(C(=O)Nc3ccon3)c3ccccc3n2)c1	0.96	-0.97
COc1ccc(-c2cn(-c3ccc(F)cc3)c(SCC(=O)Nc3ccc(F)cc3)n2)cc1OC	0.79	-1.6
CC(c1ccccn1)N(C(=O)Nc1ccccc1)C1CCCCC1 (configuration not stated)	0.94	-0.83
Cc1nc(-c2ccc(NS(=O)(=O)c3ccc4ccccc4c3)cc2)cs1	0.95	-2
Clc1cccc(-c2nc3cnccn3c2NC2CCCCC2)c1	1.3	2.8
COc1ccccc1-c1cc2nc(C)c(CCC(=O)NCCC(C)C)c(C)n2n1	0.99	-0.51
CC(NC(=O)Cc1ccccc1)c1nc2ccccc2[nH]1 (configuration not stated)	1	0.067
COc1ccc(F)cc1CN1CCN(c2ncnc3scc(-c4ccccc4)c23)CC1	0.96	-1.2
CCN(CC)CCNC(=O)CCC(=O)Nc1ccc2nc(N3CCCCC3)cc(C)c2c1	0.97	-1.1
COc1ccccc1NC(=O)CN1C(=O)CC(c2ccc(OC)c(OC)c2)Sc2ccccc21 (configuration not stated)	1.1	1.7
Cc1ccc(NC(=O)C2CCN(S(=O)(=O)c3cccnc3)CC2)cc1F	1	0.84
Cc1ccc(OCCCn2cnc3cc(C)c(C)cc32)cc1	0.96	-1.4
COc1ccc(-c2cc(C(=O)Nc3c(C)nn(Cc4ccc(Cl)cc4)c3C)no2)cc1OC	0.96	-0.51
Cc1cc(NS(=O)(=O)c2ccc3c(c2)CCC(=O)N3)ccc1N1C(=O)c2ccc(Cl)cc2C1=O	1.1	2.1
Cc1ccc(CNC(=O)C2CCC(=O)N2Cc2ccc(C)cc2)cc1 (configuration not stated)	1.1	1
CC1CCCCN1CCNC(=O)c1cc(=O)[nH]c2ccc(S(=O)(=O)N3CCCCC3)cc12 (configuration not stated)	1.1	2.5
COc1ccc(-c2csc(NC(=O)COc3ccc(Cl)cc3)n2)cc1	1.2	3.6
CCC(C(=O)Nc1c2c(nn1-c1ccc(C)cc1)CSC2)c1ccccc1 (configuration not stated)	0.97	-1.3
CN1C(=O)C2(CCNC2c2ccc(O)cc2)c2ccccc21 (configuration not stated)	1	0.46
CCSc1oc(-c2ccc(C)cc2)nc1S(=O)(=O)c1ccc(Br)cc1	0.97	-0.056
c1ccc(-c2nnn(Cc3cccc(-c4nn[nH]n4)c3)n2)cc1	0.89	-1.9
CCC1CCCCN1S(=O)(=O)c1ccc2[nH]c(=O)cc(C(=O)NC3CCCCCC3)c2c1 (configuration not stated)	0.9	-2
Cc1cc(C)cc(NC(=O)c2nccnc2C(=O)O)c1	0.66	-4.4
CCCCC(=O)Nc1ccc(S(=O)(=O)Nc2cc(OC)ncn2)cc1	1.1	0.82
CC(=O)N1CCc2cc(S(=O)(=O)NC(C(=O)NC3CCCc4ccccc43)C(C)C)ccc21 (configuration not stated)	1	1.3
COc1ccc(-c2nc(C(=O)NCc3cccnc3)c(C)o2)cc1OC	1	0.36

Gathered by group, the entries above containing fluorine
SMILES	CBX7 inh	CBX7 inh z-score
COc1ccc(-n2nc(C(=O)Nc3ccc(F)cc3)c3ccccc3c2=O)c(OC)c1	1	0.26
CCCCC1CCC(c2noc(-c3ccc(F)cc3)n2)CC1 (configuration not stated)	1.8	11
Fc1ccc(-c2nc3cnccn3c2NC2CCCCC2)cc1	1.5	4.7
CC(C)c1ccc(N(C)C(=O)c2cn(-c3ccc(F)cc3F)c(=O)c3ccccc23)cc1	0.95	-1.1
Cc1nc(N2CCCCC2C)c2c(C)c(C(=O)Nc3ccccc3C(F)(F)F)sc2n1 (configuration not stated)	1.1	4.2
Cc1cccc(-n2c(CCC(=O)O)ccc2-c2ccc(F)cc2)c1	1	0.56
O=C1C2C(C(=O)N1c1ccccc1F)C1C=CC2C12CC2 (configuration not stated)	1	-0.067
CCOCCCNC(=O)c1ccc2c(c1)N(Cc1ccc(F)cc1)CCS2	0.93	-0.43
COc1ccc(CCNc2nc(-c3ccc(Cl)cc3)cc(C(F)(F)F)n2)cc1OC	1.2	9.7
COCCNC(=O)CSc1nc(-c2ccc(F)cc2)[nH]c1-c1ccc(OC)cc1	0.96	-1
Cc1ccc2nc(NC(=O)CSc3nccn3-c3ccc(F)cc3)sc2c1	0.96	-0.052
O=C1CN(C(=O)COc2ccc3ccccc3c2)C(c2ccccc2)c2cc(F)ccc2N1 (configuration not stated)	0.9	-0.44
Cc1nn(C)c(C)c1S(=O)(=O)N(CC(=O)Nc1ccc(F)cc1)c1ccc(C(C)C)cc1	1.2	1.5
COc1ccc(-c2cn(-c3ccc(F)cc3)c(SCC(=O)Nc3ccc(F)cc3)n2)cc1OC	0.79	-1.6
COc1ccc(F)cc1CN1CCN(c2ncnc3scc(-c4ccccc4)c23)CC1	0.96	-1.2
Cc1ccc(NC(=O)C2CCN(S(=O)(=O)c3cccnc3)CC2)cc1F	1	0.84
